# NPR1 antag: antagonists of human natriuretic peptide receptor Npr1; P16066; HEK293 hNpr1 GloSensor cGMP, ANP-stimulated luminescence; Potency, µM (titrated, usually from 46.3 µM), for the others: at the top dose activity change, negative = inhibition, hits mostly inhibitors; 76,000 tested, 1.6% active; active = well fitted inhibition curve with a large enough effect; inconclusive = small, poorly fitted or top-dose-only effect; inactive = no such curve, though single readings can be large or run the other way;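 further: nearly all actives have a fitted effect of over 60% in size; nearly all hits also lower the signal before the agonist is added; a reference antagonist and vehicle were the controls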
# Target sequence (P16066 whole entry, looked up): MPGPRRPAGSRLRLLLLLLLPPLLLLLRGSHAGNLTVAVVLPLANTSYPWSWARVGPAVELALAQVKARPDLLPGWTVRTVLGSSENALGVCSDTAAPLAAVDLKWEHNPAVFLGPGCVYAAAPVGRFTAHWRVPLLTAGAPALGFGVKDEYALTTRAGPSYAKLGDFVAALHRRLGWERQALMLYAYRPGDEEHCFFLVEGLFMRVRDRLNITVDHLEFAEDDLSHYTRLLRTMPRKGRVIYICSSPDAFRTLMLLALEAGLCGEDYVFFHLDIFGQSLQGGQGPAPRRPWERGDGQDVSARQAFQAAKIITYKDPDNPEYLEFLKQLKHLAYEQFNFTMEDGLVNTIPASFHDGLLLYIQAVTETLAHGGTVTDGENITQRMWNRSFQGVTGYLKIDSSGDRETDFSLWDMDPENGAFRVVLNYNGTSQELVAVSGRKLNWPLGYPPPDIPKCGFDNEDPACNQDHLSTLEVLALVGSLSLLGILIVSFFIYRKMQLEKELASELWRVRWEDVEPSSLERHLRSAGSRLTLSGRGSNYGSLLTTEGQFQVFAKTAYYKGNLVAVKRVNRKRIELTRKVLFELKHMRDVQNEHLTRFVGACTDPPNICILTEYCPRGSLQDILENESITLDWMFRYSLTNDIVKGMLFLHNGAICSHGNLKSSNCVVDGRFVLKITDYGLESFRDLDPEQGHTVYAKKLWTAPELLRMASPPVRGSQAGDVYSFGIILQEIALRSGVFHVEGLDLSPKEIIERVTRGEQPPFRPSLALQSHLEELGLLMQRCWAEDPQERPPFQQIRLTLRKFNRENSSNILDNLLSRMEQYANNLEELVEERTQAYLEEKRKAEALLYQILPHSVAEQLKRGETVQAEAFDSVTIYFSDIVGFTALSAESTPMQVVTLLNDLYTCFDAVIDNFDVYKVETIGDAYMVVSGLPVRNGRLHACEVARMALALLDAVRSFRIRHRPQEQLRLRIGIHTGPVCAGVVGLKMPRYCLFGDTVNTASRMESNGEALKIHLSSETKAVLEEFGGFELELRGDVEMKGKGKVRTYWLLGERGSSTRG
#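 HEK293 cells stably expressing human Npr1 and cGMP GloSensor pGS-40F, loaded 2 h with 2% GloSensor reagent, given compound 30 min at room temperature. Luminescence read before and 20 min after 0.1 nM hNppA.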
# Numbers without * were called inactive; u = inconclusive; [ ] = another dose, or the depositor's remark. On the % scale 0 is the no-effect control and ±100 the full control effect; potency means the concentration at half of the fitted maximal effect. Some of the compounds tested; the hit share may differ from the screen's.
SMILES,NPR1 antag
Cc1nc(C)c(C(=O)N2CCC(Cc3nc(C4CC4)n[nH]3)CC2)s1,-1.0%
CC1=NOC2(CCN(Cc3ccc(F)cc3)CC2)C1,0.9%[70.6 µM]
COc1ccc(C(=O)N[C@H]2C[C@@H](c3nc(-c4ccncc4)no3)N(C)C2)cc1,5.8%[70.6 µM]
CC(C)(C)C(=O)Cn1ccn2nc3c(c2c1=O)CCCC3,-5.0%
COc1ccc(N2Cc3c(NC4CCCC4)ncnc3N(C)CC2=O)cc1,5.4%
Cn1nc(CC2CCN(C(=O)c3cnon3)CC2)n(-c2ccccc2)c1=O,1.7%
Cc1cc(C)n(CCC(=O)N2CC[C@@H]3CN(S(C)(=O)=O)[C@@H]3C2)n1,1.8%
O=C(c1ccccc1)N1CCCC2(CN[S+](=O)([O-])c3ccccc3N2)C1 (stereo unspecified),-17.8%
O=C(N[C@@H]1CCC[C@@H]1C(=O)NCc1ccc2c(c1)OCO2)c1ccncc1,8.5%
O=C(O)C1CN(S(=O)(=O)C2CC2)CC12CCCCC2 (stereo unspecified),3.1%
Fc1ccccc1CN1CCNc2cc(Nc3cccnc3)ncc2C1,4.5%[70.6 µM]
CC(C)(C)c1ccc(-n2ncc3c2CCCC3NC(=O)Cc2n[nH]c(=O)[nH]2)cc1 (stereo unspecified),-2.3%
Cc1ccc(CN2CCC[C@H]2C(=O)N2CCCCCCNC(=O)CC2)o1,3.5%
O=C(c1n[nH]c(=O)c2ccccc12)N1CCC(c2nc(CCOCC3CC3)no2)C1 (stereo unspecified),6.4%
COCC1CN(C(=O)c2ccc(Cc3c(C)noc3C)o2)CC12CCNCC2 (stereo unspecified),3.6%
Cc1ccc(C)c(CN2CCC3(CCC(=O)N(CCc4ccncc4)C3)CC2)c1,-0.2%
COc1ccc(CCNC(=O)Cn2ccn3nc4c(c3c2=O)CCCC4)cc1OC,0.0%
O=C(c1cnco1)N1C[C@@H](COc2cccnc2)[C@H](c2ccccn2)C1,4.2%
Cc1ccoc1C(=O)N1CCC(C2CCN(Cc3cccc(F)c3F)CC2)C1 (stereo unspecified),-16.0%
COc1ccccc1N1CCN(C(=O)C[C@@H]2C[C@@H](C(C)C)[C@H](CO)C=C2C)CC1,-3.9%[70.6 µM]
O=C(Cc1n[nH]c(=O)c2ccccc12)NC1CCCc2c1[nH]c1c(Cl)cccc21 (stereo unspecified),-27.0%
COc1cccc(C(=O)N2CCC3(CC2)CN(c2ccncn2)CC3CO)c1C (stereo unspecified),-0.1%
OCCc1cc(CC2(NCc3ccc(CO)o3)COC2)no1,3.3%[70.6 µM]
CCOc1ccc(CN2CCN(C/C=C/c3ccccc3OC)CC2CCO)cc1 (stereo unspecified),-13.6%
COCC(=O)N[C@@H]1CCC[C@@H](C(=O)NCc2ccc(OC)cc2)CC(=O)N(C)C1,-1.8%[70.6 µM]
# The list goes on:
SMILES,NPR1 antag
Cc1ccc(CN2CC[C@H](c3nc4cc(C)ccc4o3)C2)cc1,0.0%[70.6 µM]
Cc1c(CC(=O)NC2CC2)c2c(n1Cc1ccc(F)cc1)CCCC2=O,5.0%
COc1cccc([S+](=O)([O-])N2CCC3(C2)N=C(c2ccncc2)C(=O)N3)c1 (stereo unspecified),-0.9%
O=C(c1nc(-c2cccnc2)c2ccccn12)N1CCN(c2ncccn2)CC1,-1.8%
CSc1cccc(CN(C)Cc2cc3n(n2)CCNC3)c1,7.7%
O=C(CC1CCCC1)N1CCC(c2nc(C3CCOCC3)no2)C1 (stereo unspecified),-21.4%
O=C(c1ccccc1)N1CCCC(Cc2nc(C3CCOCC3)no2)C1 (stereo unspecified),-25.8%
CN1CC2(CCCN(C3CCN(C(=O)c4cnccn4)CC3)C2)OC1=O (stereo unspecified),8.2%
COCCNC(=O)c1ccc(OC2CCN(C/C=C/c3ccc(F)cc3)CC2)c(Cl)c1,u
Cc1ccc(C2NC(=O)N(CC(=O)Nc3c(C)cccc3Cl)C3=C2C(=O)OC3)cc1 (stereo unspecified),-0.1%
CC(C)c1noc(CC2CCN(C(=O)c3ccc(N(C)C)cc3)CC2)n1,-11.5%
OCC1(CN2CCCC2)CCN(Cc2ccc3ccccc3c2)CC1,3.0%
CCc1cc(N2CCC(Oc3ccccc3OC)(C(=O)O)CC2)nc(C)n1,7.6%
CCc1ccccc1NC(=O)CN1C(=O)C(c2ccccc2)=NC12CCCCCC2,0.4%
CC1(c2cccnc2)N(Cc2ccccc2)C(=O)OC12CCN(C(=O)C1CCC1)CC2 (stereo unspecified),-0.4%[70.6 µM]
O=C([C@@H]1C[C@@H](O)[C@H](O)[C@@H]2NC(=S)N(c3ccc(OC(F)(F)F)cc3)[C@@H]21)N1CCCCC1,0.0%
CCOc1ccc(-c2ccnc(NC[C@@H]3CCCO3)n2)cc1C(=O)O,10.2%
Cc1ncsc1CCC(=O)N[C@@H]1COCC[C@@H]1Oc1cccc(F)c1,2.5%
O=C(Cc1cccs1)N1CC(c2noc(C3CCCN3CC3CC3)n2)C1 (stereo unspecified),2.3%
COc1ccc(CNC(=O)[C@@H]2CCC[C@@H](NC(=O)c3ccc(C#N)cc3)CN(C)C(=O)C2)cc1,1.5%
O=C(c1cccc(OC(F)(F)F)c1)N1CC(CO)C2(CCNCC2)C1 (stereo unspecified),-2.1%
O=C(c1ccccc1Cl)N1CCC(c2nc(-c3cccnn3)no2)CC1,-1.1%
Cc1ccc(-c2noc(-c3nc(-c4ccncc4)no3)n2)cc1,2.8%
CCN1c2cc(C(=O)Nc3ccc(Cl)c(C)c3)ccc2C(=O)N2CCCCC21 (stereo unspecified),3.6%
CC(C)CCN1CCc2c(n(Cc3cccnc3)n(CCc3ccccc3)c2=O)C1,1.6%[70.6 µM]
# Carrying on:
SMILES,NPR1 antag
COc1ccc(NC(=O)[C@@H]2C[C@@H](c3ccc(F)cc3)N([S+](=O)([O-])c3ccccc3)C2)cc1,-15.5%
Cc1ccc(C(=O)N2CCCC(n3cc(-c4nc(C(C)C)no4)nn3)C2)cc1F (stereo unspecified),-25.2%
COc1ccc(CNc2cc3c(cn2)CN(C)CCN3C)cc1OC,-0.1%[70.6 µM]
O=C1NCCCCCCN(C(=O)c2cnccn2)[C@H]2C[C@H](C(=O)N3CCc4ccccc4C3)C[C@@H]12,3.7%
Cc1ccc(C(=O)N2CCC(Cc3noc(C4CCOCC4)n3)C2)s1 (stereo unspecified),-3.3%
Cc1ccc2cc(CCC(=O)N3CCOCC3)c(=O)[nH]c2c1,-15.3%
CN(C)CCN1CC2(CCCN(C(=O)CCc3cc(=O)[nH]o3)C2)CCC1=O (stereo unspecified),0.5%
CN(CCc1ccccn1)[C@H]1[C@@H]2OC[C@@H](O2)[C@@H](NCc2ccccc2O)[C@@H]1O,2.7%[70.6 µM]
Cc1cccc(NC(=O)N2C[C@@H](F)C[C@H]2C(=O)N2CCc3ccccc3C2)c1C,-4.5%
O=C(N[C@@H]1CCOC[C@H]1Oc1ccccn1)c1ccccc1-c1ncc[nH]1,0.8%
O=C(NCc1nnc2ccc(-c3ccc(Cl)cc3)nn12)c1ccc(F)c(F)c1,-8.2%
O=C(N[C@H]1CCN2C(=O)N(c3cccc4nsnc34)C(=O)[C@@H]2C1)c1ccnc(Cl)c1,0.8%
COc1ccc2cnn(CC(=O)NC3CCCc4c3[nH]c3ccccc43)c(=O)c2c1OC (stereo unspecified),4.4%
CO[C@H]1[C@H](NC(=O)c2cc(C3CC3)[nH]n2)c2ccccc2C12CCNCC2,0.0%
O=C(O)CC[C@@H]1CN(Cc2cc(=O)[nH]c(=O)[nH]2)CC[C@@H]1N1CCOCC1,-0.8%
COc1nccnc1NC1CCN(C(=O)c2cnccn2)CC1,-1.7%
CCOC(=O)CCNC(=O)N1CCC(Oc2ncccc2C(=O)N2CCOCC2)C1 (stereo unspecified),4.2%
COC[C@H]1NC(=O)CC[C@H]1C(=O)NCc1cccc(C(F)(F)F)c1,-4.1%
COCCn1c(C2CCCNC2)n[nH]c1=O (stereo unspecified),4.8%
O=C([C@@H]1C[C@H](F)CN1S(=O)(=O)c1cccc(F)c1)N1CCOCC1,3.0%
COCC(=O)N1CCN(S(=O)(=O)c2ccccc2)C[C@@H]1C(=O)N[C@@H](Cc1ccc(OC)cc1)C(=O)OC,-0.7%
CN(C)c1ccc(CN[C@H]2C[C@H]3C(=O)NC[C@@H](CCC(=O)N4CCCCC4)N3C2)cc1,4.0%[70.6 µM]
CCNC(=O)N(C1CC1)C1CCOC2(CCN(C(=O)CCc3ccccc3)CC2)C1 (stereo unspecified),0.5%
Cc1nn(CC(=O)N2CCCC3(CNC(=O)O3)C2)c(=O)c2ccccc12 (stereo unspecified),0.3%
CCOc1ccccc1C(=O)NC1CCN(c2cc(C(F)(F)F)nc(C)n2)CC1,u

# 4 of the entries above in order of their number in NPR1 antag, lowest first:
SMILES,NPR1 antag
COc1ccc(CCNC(=O)Cn2ccn3nc4c(c3c2=O)CCCC4)cc1OC,0.0%
CCc1ccccc1NC(=O)CN1C(=O)C(c2ccccc2)=NC12CCCCCC2,0.4%
O=C(N[C@H]1CCN2C(=O)N(c3cccc4nsnc34)C(=O)[C@@H]2C1)c1ccnc(Cl)c1,0.8%
Cc1ccc(-c2noc(-c3nc(-c4ccncc4)no3)n2)cc1,2.8%

# Next part
SMILES,NPR1 antag
Cc1cccc(NC(=O)N2C[C@@H](Oc3ccccc3)C[C@@H]2C(=O)N2CCOCC2)c1,0.6%
O=C(Nc1ccccc1)c1ccc(Cn2ccn3nc4c(c3c2=O)CCCC4)cc1,-1.8%
CCN(CC)C(=O)c1c(-c2ccc(OC)cc2)noc1[C@H](C)O,-11.0%[70.6 µM]
Cc1ccc(C2NC(=O)N(CC(=O)Nc3ccc(C(C)C)cc3)C3=C2C(=O)OC3)cc1 (stereo unspecified),-16.4%
CCCN(CC1CCOC1)C(=O)Nc1ccc2c(c1)OCCO2 (stereo unspecified),-7.9%
Cc1cccc(-n2nc(C3CC3)nc2-c2ccc(-c3nnn(C)n3)cc2)n1,0.5%
Cc1ccc(-c2nc3cnccn3c2NCCC(=O)NCc2ccco2)cc1,1.0%
O=C1NCCCCCN(C(=O)NCc2ccccc2)[C@H]2CCCC[C@@H]12,-2.9%
Cc1ccccc1NC(=O)N1CCC(CCNC(=O)c2cccs2)CC1,0.2%
Fc1cccc(-c2cnc([C@@H]3COCCN3Cc3cnc[nH]3)[nH]2)c1,1.0%[70.6 µM]
Cn1nccc1C(=O)N1CCC[C@H](n2c(=O)n(C)c3cccnc32)C1,-4.4%
CC(C)CCNC(=O)c1ccc2c(c1)CC(=O)N2Cc1ccc(F)cc1,-0.2%
COc1ccc(-c2nc3c(c(=O)[nH]2)CCNC3)cc1,6.1%
O=C(c1cc(F)ccc1F)N1CC(c2nc(CCc3ccccc3)no2)C1,-15.4%
COCCNC(=O)c1nc(-c2cccnc2)c2ccccn12,-8.9%[70.6 µM]
Cc1ccccc1C(=O)NC[C@@H]1CC[C@H]2C[C@@H]1C2(C)C,-5.3%[70.6 µM]
COc1ccc(-n2cc(CN3CCC(O)CC3)c(-c3cccc(F)c3)n2)cc1,-0.7%
CC(=O)N1CCN(C(=O)CSCC(=O)O)C[C@H]1C(=O)N[C@H]1CCCNC1=O,5.8%[70.6 µM]
Cc1nn2c(c1-c1ccccc1-c1ccccc1)N(Cc1ccc(C(=O)O)s1)CCC2,1.7%[70.6 µM]
CCNC(=O)CC1=C2CCCCC2NC1=O (stereo unspecified),1.0%
CCC(C)NC(=O)C1COC2(CCN(C(=O)c3cccc(OC)c3)CC2)N1C(=O)c1ccccc1 (stereo unspecified),0.2%
CC(=O)N1CCC(Cc2ccc(C(N)=O)cc2)CC1,4.8%
O=C(C1CC1)N1CCC(Cc2nncn2-c2ccccc2)C1 (stereo unspecified),-0.9%
Cc1cccc(-c2ccc3c(c2)C(=O)N2CC[C@H](NC(=O)c4cccnc4)C[C@H]2C(=O)N3)c1C,-2.4%
CCCc1nnc(C[C@@H]2C[C@@H](C(C)C)[C@H](CN3CCN(CCO)CC3)C=C2C)o1,4.7%[70.6 µM]
# Remaining list, next part
SMILES,NPR1 antag
CCc1ccc(CNC(=O)C2CCCCC(=O)N2C)cc1 (stereo unspecified),4.2%
COc1ccccc1N1CC2(CN(CCOc3ccccc3)C(=O)O2)C1,-2.8%[70.6 µM]
COc1cccc(-c2ccc(N3CCCCCC3)nn2)c1OC,-11.9%
O=c1c2nc(Nc3ccccc3)ccc2ncn1-c1ccccc1,1.7%[70.6 µM]
O=C(N[C@H]1CCN2C(=O)N(c3ccc(OC(F)(F)F)cc3)C(=O)[C@@H]2C1)c1cnccn1,0.0%[70.6 µM]
COc1cccc(C(=O)N2C[C@@H](Oc3ccccc3)C[C@@H]2C(=O)N2CCOCC2)c1,0.3%
CCC(C)NC(=O)C1CC(c2ccccc2)CN(C(=O)c2ccc(OC)cc2)C1 (stereo unspecified),-3.8%
Cn1cccc1C(=O)N1CCN(C(=O)N2CC3CC(C2)[C@H]2CCCC(=O)N2C3)CC1 (stereo partly specified),5.7%
O=C(CC[C@H]1NC(=O)c2ccccc2NC1=O)NCCc1ccco1,7.7%
COc1ncccc1-c1nccc2c(=O)cc(N3CCOCC3)oc12,-3.9%[70.6 µM]
CS(=O)(=O)N1C[C@H]2CCN(Cc3cn[nH]c3-c3ccccc3)C[C@H]21,-1.6%
CCNC(=O)c1n[nH]c2c1CN(C(=O)c1ccccc1OC(F)(F)F)CC2,2.2%
CN1CCCN(C(=O)CCC[C@@H]2[C@H]3CCCN4CCC[C@@H](CN2C)[C@@H]34)CC1,0.7%
COc1ccc(OC)c(S(=O)(=O)N2CCCC(Cn3c(C)nc4cccnc43)C2)c1 (stereo unspecified),0.4%

# Quoted from the listing.
# NPR1 antag result of COc1ncccc1-c1nccc2c(=O)cc(N3CCOCC3)oc12 → -3.9%[70.6 µM]
# NPR1 antag result of O=C(CC[C@H]1NC(=O)c2ccccc2NC1=O)NCCc1ccco1 → 7.7%
# NPR1 antag result of COc1ccccc1N1CC2(CN(CCOc3ccccc3)C(=O)O2)C1 → -2.8%[70.6 µM]
# NPR1 antag result of O=c1c2nc(Nc3ccccc3)ccc2ncn1-c1ccccc1 → 1.7%[70.6 µM]

# Screens (PubChem)
